Source: PubChem BioAssay
Mtb growth: Mycobacterium tuberculosis H37Rv growth inhibition, putative kinase inhibitor library, confirmatory dose response (AID 2842) | inhibition, % at 10 µg/mL, or IC90 in µg/mL where a hit was titrated | 24,000 compounds, 5.2% hits | M. tuberculosis H37Rv growth inhibition; higher % means a stronger effect; some inactives read as strong as hits;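 active means confirmed in a dose series; inconclusive means mostly over 85% at the one dose but not retested; inactive means below 85% or not confirmed; about a fifth of its hits are not listed in these tables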;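 further: bacteria incubated one week before Alamar blue readout; 0% = bacteria only wells and 100% = bacteria with high antibiotic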
An asterisk follows results filed as active; ? = inconclusive. These rows are one share of the data; rates above refer to the full screens.

molecule,Mtb growth
O=C(Nc1cccc2ccccc12)c1cnc2n(c1=O)CCS2,4.0%
Nn1c(SCc2ccccc2)nnc1-c1ccco1,10.5%
Nc1nc(SCc2ccc(F)cc2)[nH]c(=O)c1NC(=O)c1ccco1,-0.4%
COc1cccc(-c2csc(/C(C#N)=C\Nc3cccc4ccccc34)n2)c1,1.8%
Cc1ccc(-c2nc(S(=O)(=O)c3ccc(Cl)cc3)c(SCC(=O)Nc3cc(C)cc(C)c3)o2)cc1,-6.6%
CN(Cc1ccccc1)Cc1nc2c([nH]1)c(=O)[nH]c(=O)n2C,-5.2%
Nc1ncnc(Nc2cc(Cl)cc(Cl)c2)c1[N+](=O)[O-],-7.8%
COc1ccc(C(=O)c2cn(Cc3ccc(Cl)cc3)c3cc4c(cc3c2=O)OCCO4)cc1OC,15.6%
COc1ccc(-c2csc(NC(=O)c3ccc4ncsc4c3)n2)cc1,-5.7%
Cc1c(Cl)cccc1NC(=O)c1sc2nc3c(cc2c1N)C(=O)CCC3,-5.2%
Cc1cccc(-n2ncc3c(=O)n(CC#N)cnc32)c1C,-0.9%
Cc1ccccc1-c1nnc(NC(=O)c2ccccc2F)s1,2.8%
O=C(CCCCn1c(=O)[nH]c2ccsc2c1=O)NCCc1ccc(Cl)cc1,28.4%
Cc1ccc(NC(=O)CC(NCc2cccnc2)C(=O)O)cc1Cl (stereo not drawn),-26.2%
COc1ccc(N2C(=O)CC(Nc3ccc(N4CCCCC4)cc3)C2=O)cc1 (stereo not drawn),9.0%
Nc1ncnc(Sc2nc3ccccc3[nH]2)c1[N+](=O)[O-],17.1µg/mL*
Cc1ccc(Cn2nnc3c(SCc4ccc([N+](=O)[O-])cc4)ncnc32)cc1,5.4%
Cc1nc2cc(NC(=O)c3cc(-c4ccccc4)nc4ccccc34)ccc2n1-c1ccccc1,46.4%
COc1cc(/C=N\Nc2nncc(=O)[nH]2)cc(Br)c1O,5.2%
CCSc1ccccc1C(=O)Nc1sc2c(c1C(N)=O)CCCC2,5.0%

molecule,Mtb growth
CCCCc1c(C)c(C#N)c2nc3ccccc3n2c1Nc1ccc(OCC)cc1,-0.1%
O=C(Nc1nnc(-c2ccncc2)o1)c1ccc(F)cc1,3.23µg/mL*
O=C(CSc1ccc2nnc(-c3ccccn3)n2n1)Nc1ccc([N+](=O)[O-])cc1,-5.9%
CCc1ccc(C(=O)c2cn(CC(=O)Nc3ccc(F)cc3)c3ccc(F)cc3c2=O)cc1,38.6%
Cc1cccc(CC2SC(=Nc3ccccc3)NC2=O)c1 (stereo not drawn),24.5%
Cc1cccc(NC(=O)CSc2nc(-c3ccccc3Cl)nc3c2Cc2c(CO)cnc(C)c2O3)c1,-4.8%
O=c1cc(Cc2n[nH]c(=S)n2-c2ccc(Cl)cc2)[nH]c(=O)[nH]1,-17.3%
CCn1cc(SCC(=O)NC2CCCCC2)c2ccccc21,-1.0%
COc1ccc(Nc2nnc(-c3cc4ccccc4oc3=O)s2)cc1,14.7%
CC1Cc2nc(SCC(=O)NCc3ccco3)n(C)c(=O)c2S1 (stereo not drawn),-4.5%
CCOc1cccc2c1Oc1nc(-c3cc(Cl)ccc3O)[nH]c(=O)c1C2,-4.8%
NC(=O)CSc1nc2ccc(N3CCOCC3)cc2c(=O)n1CCc1ccccc1,4.3%
COc1ccc(OC)c(NC(=O)c2oc3ccccc3c2NC(=O)c2ccc(Br)o2)c1,-11.1%
Cn1c(Cn2c(=O)sc3ccccc32)nnc1SCc1ccc(Br)cc1,5.1%
CC(=O)N1CCN(C2=NC(=O)/C(=C\c3ccc(O)cc3)S2)CC1,12.7%
Cn1c2c(c(=O)n(C)c1=O)C(c1ccc(OCc3ccccc3)cc1)C1=C(CC(C)(C)CC1=O)N2 (stereo not drawn),4.5%
Nc1ncnc(Sc2nc3ccccc3s2)c1[N+](=O)[O-],81.2%
COC(=O)C(C)Sc1nc2c(c(=O)[nH]c(=O)n2C)n1Cc1cccc(C)c1 (stereo not drawn),14.0%
Cc1nc2sc(C(c3ccc(Cl)c(Cl)c3)N3CCN(CCO)CC3)c(O)n2n1 (stereo not drawn),-3.8%
Cc1cc(C)c(C(=O)Nc2ccc3c(c2)OCCO3)c(C)c1,66.7%

molecule,Mtb growth
N#C/C(=N\Nc1cc(C(F)(F)F)ccc1Cl)c1nc(-c2ccc(Br)cc2)cs1,0.1%
Cc1ccc2cccc(Oc3ncnc(N)c3[N+](=O)[O-])c2n1,6.6%
O=C(CC1(O)C(=O)Nc2ccccc21)c1ccccc1 (stereo not drawn),-5.7%
CC1CN(S(=O)(=O)c2ccc(C(=O)NNC(=O)c3ccc4ncsc4c3)cc2)CC(C)O1 (stereo not drawn),-5.9%
O=C(NCc1ccco1)c1cnc2n(c1=O)CCS2,4.2%
COc1ccc(NC(=O)CSc2ncnc3c2cnn3-c2cccc(Cl)c2)c(OC)c1,-9.7%
Cc1cc(C)nc(SCc2cc(=O)c(OC(=O)c3ccc(-c4ccccc4)cc3)co2)n1,4.0%
O=C(Nc1nc2c(s1)CCCC2)c1ccc2ncsc2c1,?
CC(C)c1nnc(NC(=O)c2ccco2)s1,-6.2%
COc1ccc2nc(-c3cccc(NC(=O)c4ccc(OC)c(OC)c4)c3)cn2n1,11.2%
COc1ccc(Nc2nnc(-c3cc4cc(Br)ccc4oc3=O)s2)cc1,-2.2%
Oc1c(C(c2ccco2)N2CCOCC2)sc2ncnn12 (stereo not drawn),2.9%
N#Cc1c(NC(=O)c2nc3ccccc3s2)sc2c1CCN(Cc1ccccc1)C2,7.2%
CCOC(=O)N1CCN(C2CC(=O)N(c3ccc(CC)cc3)C2=O)CC1 (stereo not drawn),-8.8%
O=C(Nc1nnc(-c2ccc(Cl)cc2)s1)c1cc([N+](=O)[O-])ccc1Cl,12.6%
CCOC(=O)c1nn(-c2ccc(C)cc2)c(=O)c2c(NC(=O)c3cccs3)scc12,3.4%
Cn1cnnc1SCc1cc(=O)c(OCC(=O)c2ccccc2)co1,-2.1%
Cc1[nH]c2ccccc2c1SCC(=O)Nc1nccs1,6.7%
Cc1ccc(C)c(NC(=O)CSc2nncc(=O)n2N)c1,-4.1%
COc1ccc2cc(CCNC(=O)c3cc(Cl)ccc3[N+](=O)[O-])c(=O)[nH]c2c1,30.4%

molecule,Mtb growth
Cc1ccc(NC(=O)C(=O)Nc2cc3c4c(c2)CCN4C(=O)CC3)cc1,8.9%
CCOc1ccc(N=Nc2c(C)n[nH]c2C)c([N+](=O)[O-])c1,7.7%
O=C(Nc1ccc(F)c(C(F)(F)F)c1)c1c[nH]c(=O)n(-c2ccc(F)cc2)c1=O,52.3%
O=C(CNC(=O)c1ccccc1)N=Nc1c(O)[nH]c2ccc([N+](=O)[O-])cc12,-9.6%
CCCC(=O)Nc1c(C(=O)Nc2ccc(Cl)cc2)oc2ccccc12,2.9%
COc1cc2ccccc2cc1C(=O)Nc1nccs1,30.2µg/mL*
CCOc1ccc(NC(=O)CSc2ncnc3c2oc2ccccc23)cc1,3.7%
CCOC(=O)C1=C(C)NC(=O)NC1c1ccc([N+](=O)[O-])cc1 (stereo not drawn),-7.0%
CN1CCN(c2nc(Nc3ccc(F)cc3)c3nccnc3n2)CC1,1.9%
CN1CCN(c2ccc(NC(=O)Cc3cccs3)cc2)CC1,-8.4%
O=C(Nc1cccc(Cl)c1)c1cnc2n(c1=O)CCS2,1.1%
Cc1cccc(C(=O)NCCc2cc3cc(C)c(C)cc3[nH]c2=O)c1,0.0%
COc1ccccc1N1C(=O)N(c2cccc([N+](=O)[O-])c2)C2CS(=O)(=O)CC21 (stereo not drawn),-5.6%
C=C(C)Cn1c(N2CC(C)CC(C)C2)nc2c1c(=O)[nH]c(=O)n2C (stereo not drawn),-1.1%
O=C(Nc1nc2c(s1)CSc1ccccc1-2)c1ccc(S(=O)(=O)N2CCc3ccccc3C2)cc1,-4.0%
Cc1ccc(C)c(CSC2=NCCN2C(=O)c2ccco2)c1,-2.7%
NS(=O)(=O)c1ccc(NC(=O)NC2CCCCC2)cc1,0.1%
O=C(COc1ccc(Br)cc1)OCCOc1ccc([N+](=O)[O-])cc1,0.7%
CC(Cn1cnc2ccccc21)C(=O)N=Nc1c(O)[nH]c2ccccc12 (stereo not drawn),-10.7%
O=C(NCCSc1c[nH]c2ccccc12)c1ccc(S(=O)(=O)N2CCCC2)cc1,-3.7%

molecule,Mtb growth
Cc1ccc(NC(=O)COC(=O)c2ccc3c(c2)C(=O)N(CC(C)C)C3=O)cc1Cl,12.2%
O=C(Oc1ccc2c(=O)c(Oc3ccc4ccccc4c3)coc2c1)c1ccncc1,1.4%
O=C(/C=C/c1cnn(-c2ccccc2)n1)c1cc(Cl)ccc1O,3.2%
CCOc1ccc(S(=O)(=O)c2cn(Cc3cccc(Cl)c3)c3ccc(F)cc3c2=O)cc1,-2.1%
CC(=O)Nc1cc(C)c2c(=O)oc3ccccc3c2n1,1.1%
Cc1ccc(-n2nnc(C(=O)Nc3ccc(C)c(Cl)c3)c2N)cc1C,4.7%
CC1CCc2nc(NC(=O)CCSc3ccccc3)sc2C1 (stereo not drawn),11.3%
O=C(CSc1ncnc2c1cnn2-c1ccc(F)cc1)NCc1ccccc1Cl,11.2%
CCN(CC)S(=O)(=O)c1ccc(C(=O)NCCc2cc3ccc(C)cc3[nH]c2=O)cc1,-7.8%
Nc1ncnc(Sc2ccc(Cl)cc2)c1[N+](=O)[O-],14.3%
CN(C)/C=N/c1c(C#N)cnn1-c1ncnc2sc(-c3ccccc3)cc12,8.0%
COc1cccc(C(=O)Nc2nnc(-c3ccccc3Cl)s2)c1,1.8%
O=C(Cn1cnc2c(cnn2-c2ccc(Cl)cc2)c1=O)NCc1ccc2c(c1)OCO2,3.2%
COc1cccc(C(=O)NCCc2cc3c(OC)ccc(OC)c3[nH]c2=O)c1OC,9.5%
COc1ccc(-c2nc(SCC(=O)Nc3ccc4c(c3)OCO4)c3c(=O)n(C)c(=O)n(C)c3n2)cc1,-2.3%
Cc1[nH]c2ccc(N3CCOCC3)cc2c(=O)c1CN(C)C1CCCCC1,-7.9%
C=C(C)Cn1c(N/N=C/c2ccc(O)cc2)nc2c1c(=O)n(C)c(=O)n2C,35.2%
CCOC(=O)c1nn(-c2ccc(C)cc2)c(=O)cc1NCc1ccncc1,-9.7%
CCOC(=O)c1ccc(NC(=O)CSc2ccc(F)cc2)cc1,5.47µg/mL*
O=C(COc1ccc(Cl)cc1)Nc1nnc(-c2ccco2)o1,97.4%

molecule,Mtb growth
COc1cccc(Cn2cc(C(=O)c3ccc(C)cc3)c(=O)c3cc(OC)c(OC)cc32)c1,4.0%
O=C(CSC1=NS(=O)(=O)c2cc(F)ccc2N1)NC1CCCCC1,5.6%
Cc1cccc(-c2nnc(NC(=O)c3ccccc3F)s2)c1,3.0%
Cc1ccc(-c2nnc(NC(=O)c3ccc(S(=O)(=O)N4CCC(C)CC4)cc3)o2)c(C)c1,46.7µg/mL*
O=C(Nc1nnc(C2=COCCO2)o1)C1=COCCO1,-2.7%
Nc1nc(SCc2ccccn2)[nH]c(=O)c1NC(=O)c1ccc(F)c(F)c1,-5.2%
CC(=O)Nc1cccc(NC(=O)CSc2ccc3nnc(-c4ccc(Cl)cc4)n3n2)c1,-5.9%
O=C(Nc1cccc(Br)c1)C(Cc1ccccc1)N1C(=O)c2ccccc2C1=O (stereo not drawn),-14.8%
Cc1ccccc1C1C=C(c2ccc(Cl)cc2)Nc2nnnn21 (stereo not drawn),-6.2%
Cc1ccc(NC(=O)CSc2nc3c(oc4ccccc43)c(=O)[nH]2)cc1C,-2.2%
CCS(=O)(=O)c1ccccc1C(=O)Nc1sccc1C(N)=O,-15.5%
CCOc1ccccc1NC(=O)COC(=O)c1ccc2c(c1)C(=O)N(c1cccc(C)c1C)C2=O,6.1%
COC(=O)c1ccccc1NC(=O)CSc1nc2sc(C)c(C)c2c(=O)[nH]1,-6.2%
CC(=O)C1C(c2cccc(C)c2)NC(=O)NC1(O)C(F)(F)F (stereo not drawn),-1.6%
CN1CCN(C(=O)CN2C(=O)c3cccc4cccc(c34)C2=O)CC1,-15.0%
O=C1NC(=S)/C(=C\c2ccc(-c3cc(Cl)ccc3Cl)o2)S1,16.9%
CC(=O)N1CCc2c(sc(NC(=O)c3cc(Cl)ccc3Cl)c2C(N)=O)C1,6.5%
CCOC(=O)Nc1c(C(=O)Nc2ccc(CC)cc2)oc2ccccc12,-2.5%
O=C(CSc1ccc2nnc(-c3ccc(F)cc3)n2n1)NCc1ccc2c(c1)OCO2,-15.5%
COc1ccc(OC)c2[nH]c(=O)c(CCNC(=O)c3cc(C)cc(C)c3)cc12,-1.3%

molecule,Mtb growth
CCOC(=O)c1oc2ccccc2c1NC(=O)c1cc(C)cc(C)c1,3.5%
C/C=C\C(=O)Nc1scc2c(C(=O)OCC)nn(-c3ccc(OC)cc3)c(=O)c12,-4.2%
COc1ccc(Cl)cc1NC(=O)CSc1ncnc2c1oc1ccccc12,-1.6%
Cc1ccc(C(=O)c2cn(CC(=O)Nc3ccc(F)cc3)c3cc4c(cc3c2=O)OCO4)cc1C,11.8%
